TRPML1 blocker: blocks the human TRPML1 channel. Q9GZU1. TRPML1-inducible cells, Ca2+ dye fluorescence, FDSS; hits give low values; inhibition of EC80 agonist-evoked calcium signal. activity change, negative = inhibition, % (concentration not given with the values). hit rate 0.02% among 390,000. AID 624415; in the data active means activity change below about -50%; inconclusive means about -30% to -50%; inactive means above about -30%;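 also: stimulus is agonist 54-4 at its EC80 concentration; % is scaled to controls: 0 for no effect and ±100 for the full control effect; compound concentration not given in the record; the text of the record puts the active cut at -80%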
Target sequence (Q9GZU1 whole entry, looked up): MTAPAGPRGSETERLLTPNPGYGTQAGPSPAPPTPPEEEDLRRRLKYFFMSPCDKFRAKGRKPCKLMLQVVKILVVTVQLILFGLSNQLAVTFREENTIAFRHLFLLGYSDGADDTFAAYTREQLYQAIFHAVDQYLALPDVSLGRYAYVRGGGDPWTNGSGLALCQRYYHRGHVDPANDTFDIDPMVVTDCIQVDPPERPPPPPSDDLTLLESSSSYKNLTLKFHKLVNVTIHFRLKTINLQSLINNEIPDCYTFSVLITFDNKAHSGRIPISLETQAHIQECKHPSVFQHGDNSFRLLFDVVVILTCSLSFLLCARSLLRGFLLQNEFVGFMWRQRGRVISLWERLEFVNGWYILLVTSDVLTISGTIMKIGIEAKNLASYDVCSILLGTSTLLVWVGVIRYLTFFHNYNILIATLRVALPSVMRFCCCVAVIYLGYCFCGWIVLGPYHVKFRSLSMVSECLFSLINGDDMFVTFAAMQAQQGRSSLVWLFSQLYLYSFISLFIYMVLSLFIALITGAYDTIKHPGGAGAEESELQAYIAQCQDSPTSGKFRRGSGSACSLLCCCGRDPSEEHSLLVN
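Calcium fluorescence in TRPML1-DL cells induced overnight with Tet: a 110 s read after compound pin addition, then a 110 s antagonist read after challenge with 54-4 at 4 uM final (EC80).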
TRPML1 ag: activates the human TRPML1 channel. TRPML1-expressing cells, Ca2+ dye fluorescence, FDSS; host cell line not named in the record; reference of the full effect not given here. hit rate 0.12% among 410,000. activation, % (no concentration beside the values). AID 624414. Q9GZU1; in the data active = activation above about 50%; inconclusive = about 30% to 50%; inactive = below about 30%; also: 0% is about no effect; the text of the record puts the active cut at 80%
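Calcium fluorescence on an FDSS kinetic reader gave the read-out. Tet-induced TRPML1-DL cells were plated overnight, dye-loaded (Ca8 with quencher, 45-90 min, room temperature, dark), then read 110 s after compound addition, and again 110 s after 4uM final 54-4 (EC80).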
PINK1 expr mod: modulators of PINK1 expression. hit rate 0.2% among 410,000. PINK1 immunofluorescence, high-content cytometry, 24 h. Potency, µM (highest dose often 76.6 µM), without a hit: at the top dose activation (PINK1 increase), most hits filed as activators; active = well fitted activation curve with a large enough effect; inconclusive = small, poorly fitted or top-dose-only effect; inactive = flat fitted curve, though single readings scatter; cell line not stated here;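 also: potency is read from the fitted curve at half-maximal effect; % of control where 0% means no effect; nearly all actives have a fitted effect of over 65% in size; a mitochondrial uncoupler was the plate control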
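Readout is PINK1 immunofluorescence, quantified alongside mitochondrial, cell and nuclear markers by laser-scanning microplate cytometry. Cells from a stable line were exposed to compound titrations (5 concentrations) for 24 hours, with CCCP controls.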
D2 PAM: potentiates the human D2 dopamine receptor allosterically | P14416 | DiscoveRx D2 beta-arrestin cells, luminescence, 90 min; 100% = 57 uM dopamine signal | potentiation, % (test concentration not listed) | hit rate 0.23% among 360,000; active = potentiation of 50% or more; inconclusive = 30% to 50%; inactive = 30% or less;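 also: compound concentration not given in the record; tested on top of an EC20 dose of dopamine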
Target sequence (P14416 whole entry, looked up): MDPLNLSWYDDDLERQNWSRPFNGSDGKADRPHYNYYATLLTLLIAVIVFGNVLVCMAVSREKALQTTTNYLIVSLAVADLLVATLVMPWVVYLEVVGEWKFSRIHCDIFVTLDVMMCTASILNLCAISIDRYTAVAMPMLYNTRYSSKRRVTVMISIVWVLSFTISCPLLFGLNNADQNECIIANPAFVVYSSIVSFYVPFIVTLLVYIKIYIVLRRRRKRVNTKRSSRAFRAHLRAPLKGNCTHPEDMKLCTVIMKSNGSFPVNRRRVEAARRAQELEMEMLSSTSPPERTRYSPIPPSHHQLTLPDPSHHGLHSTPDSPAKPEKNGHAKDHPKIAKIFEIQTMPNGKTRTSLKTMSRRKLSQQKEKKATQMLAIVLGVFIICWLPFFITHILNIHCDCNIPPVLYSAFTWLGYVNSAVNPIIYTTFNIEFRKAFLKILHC
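PathHunter beta-arrestin assay in DiscoveRx D2 cells. Compounds were added with an EC20 of dopamine (50 nM final) for 90 min at 37 deg C. Luminescence was read 1 h after detection reagent, with 57 uM dopamine as the EC100 control.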
D2 agonist: agonists of human D2 dopamine receptor (beta-arrestin); hit rate 0.084% among 360,000; DiscoveRx PathHunter D2 beta-arrestin, luminescence, 90 min; 100% = 57 uM dopamine signal; activation, % (concentration not given with the values); P14416; in the data active = activation above about 40%; inconclusive = about 15% to 40%; inactive = below about 15%; also: compound concentration not given in the record; the text of the record calls up to 30% inactive
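Agonist mode: compounds alone added to overnight-plated D2 PathHunter cells for 90 min at 37 C, with 57 uM final dopamine (EC100) defining full response. Beta-arrestin recruitment detected by chemiluminescent reagent, read after 1 h at ambient temperature.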
Six1-Eya2 inh: inhibitors of human Six1/Eya2 interaction; Q15475+O00167; AID 651725; AlphaScreen GST-Six1/His-Eya2 binding, biochemical; hits give low values; control for the full effect not named in the record; hit rate 0.56% among 360,000; activity change, % (concentration not given with the values); in the data active = activity change below about -65%; inconclusive = about -30% to -65%; inactive = above about -30%; also: % is scaled to controls: 0 for no effect and ±100 for the full control effect
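Six1/Eya2 binding was read as AlphaScreen signal after compounds were pinned into GST-Six1 plus His-tagged Eya2 (5X stock 250/500 nM) in pH 8.0 Tris/NaCl/TCEP buffer, beads added, then incubated 1 h, 37 C, dark.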
* marks the source's active call; other numbers are inactive results; u = inconclusive; x = not tested or not shown; & = joins results of further samples; [ ] = dose if it differs, or a comment. This is a subset (hit frequency here may not be typical).

SMILES | TRPML1 blocker | TRPML1 ag | PINK1 expr mod | D2 PAM | D2 agonist | Six1-Eya2 inh
Nc1c(C(=O)NCC2CCCO2)c2nc3ccccc3nc2n1Cc1ccco1 (stereo not given) | -5 | 8.2 | -2.0% | -1 | 2.2 | -4
c1ccc(CN2CCN(Cc3ccc4c(c3)OCCO4)CC2)cc1 | 11 | 1.1 | 0.1% | -6 | -3.3 | 1
CCCCn1nnnc1C(c1ccc(OC)cc1)N1CCC2(CC1)C(=O)NCN2c1ccccc1 (stereo not given) | x | -0.6 | 0.2% | -10 | -4.1 | 1
Cc1ccccc1NC(=S)NC(NC(=O)CF)C(Cl)(Cl)Cl (stereo not given) | -7 | 0.6 | 9.6% | 0 | 1.8 | -2
Cc1ccc(S(=O)(=O)N2CC3CC(C2)c2cccc(=O)n2C3)cc1 (stereo not given) | -2 | 0.6 | 1.0%[38.3 µM] | -4 | 1.9 | 3
CC(=O)C1=C(C)OC(N)=C(C(=O)OC(C)C)C12C(=O)Nc1ccccc12 (stereo not given) | -3 | 0.8 | x | 12 | 3.0 | 5
COc1ccccc1CC(=O)N1CCN(CCc2ccccc2)CC1 | -16 | 2.0 | -0.5% | -17 | 6.3 | 0
Cn1c(NN=O)nc2ccccc21 | -9 | 0.8 | -1.5% | -1 | -1.1 | u
COc1ccc(OC)c(-n2c(O)c(/C=C3\C=Nc4ccccc43)c(=O)[nH]c2=O)c1 | 50 | 1.3 | 6.8% | -1 | 0.7 | -2
CN(C)CCN(CC1CCCN(Cc2ccccc2F)C1)C(=O)Cc1ccc(F)c(F)c1 (stereo not given) | x | x | 1.0% | -2 | 1.0 | 1
BrCC(Br)C1CCC(Br)C(Br)C1 (stereo not given) | 0 | 0.5 | 19% | 9 | -0.9 | 5
CCOC(=O)C1CCN(Cc2c(F)cccc2Cl)CC1 | -10 | 0.3 | u | -11 | 2.0 | 10
CCCCC(=O)N/N=C/c1c(O)n(-c2cccc3ccccc23)c(=O)[nH]c1=O | -6 | -0.4 | -0.3% | -18 | -4.8 | -71*
O=C(NCc1ccccn1)c1ccccc1Cl | 5 | 0.1 | 1.4%[38.3 µM] | -7 | -0.2 | -2
CCC(CC)NC1CCCCC1OC (stereo not given) | 39 | -0.1 | -1.1% | -9 | -5.8 | -2
C=CCN1C(=O)NC(=O)C(CCc2ccncc2)(CCc2ccncc2)C1=O | -16 | 1.3 | -0.1% | -3 | -5.0 | 0
Nc1ccncc1Cl | 3 | 0.6 | 2.4% | -4 | -3.4 | 11
Cc1ccc[n+](CC(O)Cn2c3ccccc3c3ccccc32)c1 (stereo not given) | 8 | 0.1 | 5.2% | 12 | 0.6 | 9
Cc1cc(C=C2C(=O)N(C)C(=S)N(C)C2=O)c(C)n1C1CCCCC1 | 4 | 2.5 | 0.1% | 0 | -1.3 | -7
COC(=O)C1=C(c2cccc(C#N)c2)C[C@@H]2CC[C@H]1N2C(=O)N1CCOCC1 | 44 | 1.3 | 1.2% | -1 | -2.3 | 25
Cc1ccc(-n2c(C)cc(/C=C3/C(=O)NC(=O)N(C)C3=O)c2C)cc1 | 21 | 1.5 | 1.4% | -8 | -0.9 | 11
Cc1ccc2c(C)c3ccc4ccccc4c3c[n+]2c1 | -1 | -0.1 | 3.0% | -11 | -0.8 | u
COc1cc(C)c(CN2CCN(c3ccccc3)CC2)cc1C | 16 | -0.1 | 26%[38.3 µM] | -16 | -2.4 | -23
Cn1c(O)c(C(=N)COc2cccc(Cl)c2)c(=O)n(C)c1=O | 2 | -0.4 | x | -11 | 3.3 | -2
O=C(CN1CC(c2ccccc2)CC1=O)Nc1ccccc1 (stereo not given) | 0 | 0.1 | 1.6% | -4 | -2.3 | 1
Next structures:
SMILES | TRPML1 blocker | TRPML1 ag | PINK1 expr mod | D2 PAM | D2 agonist | Six1-Eya2 inh
Cc1cc(-c2cc(C)c(N)c(C)c2)cc(C)c1N | 9 | -0.9 | 3.5% | 0 | -2.6 | -5
CC(C(=O)c1c[nH]c2ccccc12)N1CCSCC1 (stereo not given) | 13 | 0.1 | 1.3% | -8 | -3.9 | -10
C[C@]12CCC3C(CC[C@H]4[C@H](O)[C@H](O)CC[C@]34C)C1CC[C@@H]2O (stereo not given in full) | -9 | -0.1 | 1.2% | -6 | 1.5 | 0
Cc1ccc(CNCCc2ccc(F)cc2)s1 | 27 | 0.5 | -0.3% | -10 | -7.5 | 0
COCCOC(=O)c1c(N)n(Cc2ccco2)c2nc3ccccc3nc12 | -12 | -0.2 | 2.3% | -2 | -3.9 | -16
O=C(Cn1cnc2ccccc2c1=O)NCCC(=O)N1CCC2(CC1)OCCO2 | -2 | -0.2 | -1.1% | 8 | -1.2 | 5
O=P1(O)C=C(c2ccccc2)NC(c2ccccc2)=C1 | -10 | 0.0 | u | -5 | -0.8 | 9
COc1cc(OC)c(OC)cc1/C=C1\C(=O)NC(=O)N(Cc2ccccc2)C1=O | 1 | 0.0 | 3.4% | 13 | 3.1 | 6
COc1cccc2c1cc([N+](=O)[O-])c1c(C(=O)O)cc3c(c12)OCO3 | x | x | 0.1% | -50 | -10 | 1
CN1C(=O)/C(=C/c2ccc(N3CCCCCC3)o2)C(=O)NC1=S | 16 | 14 | 7.0% | -21 | -4.9 | -3
O=C(Nc1ccc2c(c1)OCO2)c1cccn(Cc2cccc([N+](=O)[O-])c2)c1=O | -9 | -0.5 | 1.0% | x | x | x
COc1ccc2c(c1)CC1(CN2C)C(=O)NC(=O)N(c2ccc(F)cc2)C1=O (stereo not given) | -17 | 1.4 | -0.5% | 11 | 4.1 | 13
COC(=O)[C@@H]1N=C(c2ccc(OC)cc2)O[C@]12C(=O)N(Cc1ccccc1)c1ccccc12 | x | 0.0 | 1.8% | x | x | -15
O=C(c1cc2c(s1)-c1ccccc1OC2)N1CCC2(CC1)OCCO2 | -8 | 0.0 | 17%[38.3 µM] | 4 | -1.6 | 5
CCOc1ccc(N=Cc2c(O)n(C(C)(C)C)c(=O)[nH]c2=O)cc1 | 8 | 0.8 | -1.8% | 4 | 0.5 | 1
Cc1nc2nc(SCC(=O)N3CCC4(CC3)OCCO4)nn2c(C)c1Cc1ccccc1 | 20 | -0.8 | -0.7% | -5 | -2.1 | 0
CCCC[N+]1(C)C2CC(OC(=O)C(CO)c3ccccc3)CC1C1OC12 (stereo not given) | 6 | -0.7 | 2.3% | 10 | -1.7 | 0
COC(=O)[C@@H](c1ccccc1)C1CCCCN1 (stereo not given in full) | 10 | -0.5 | 0.4% | -6 | -0.6 | -1
O=C(CN1CCOCC1)Nc1ccc(Br)cc1C(=O)c1ccccc1 | -6 | 1.1 | -2.1%[38.3 µM] | 0 | -2.3 | -4
NP(=O)(Oc1ccccc1Cl)Oc1ccccc1Cl | 31 | -0.3 | 1.5% | 2 | -4.9 | 3
CCN1CCN(Cc2cccnc2)CC1 | 1 | -0.3 | -0.9% | -2 | 4.5 | -3
CCN(CC)c1ccc(/C=C2\C(=O)NC(=S)N(C)C2=O)o1 | 10 | 7.7 | 4.9% | -3 | 2.3 | -1
O=C(Cn1ccc2ccccc2c1=O)NCC(=O)N1CCC2(CC1)OCCO2 | 13 | 0.7 | 1.8% | -1 | 0.2 | -6
Nc1ccc(Cl)c(Cl)c1 | -1 | -0.2 | 1.8% | -2 | -0.2 | -4
Cc1ncc(CNC(=O)N(CCCl)N=O)c(N)n1 | 10 | 0.3 | -0.5% | -10 | -5.5 | 8

Random excerpt: two compounds from above
SMILES | TRPML1 blocker | TRPML1 ag | PINK1 expr mod | D2 PAM | D2 agonist | Six1-Eya2 inh
Cc1ncc(CNC(=O)N(CCCl)N=O)c(N)n1 | 10 | 0.3 | -0.5% | -10 | -5.5 | 8
CCOc1ccc(N=Cc2c(O)n(C(C)(C)C)c(=O)[nH]c2=O)cc1 | 8 | 0.8 | -1.8% | 4 | 0.5 | 1

Ordered by molecular weight (lowest first): 3 of the compounds above.
SMILES | TRPML1 blocker | TRPML1 ag | PINK1 expr mod | D2 PAM | D2 agonist | Six1-Eya2 inh
COC(=O)[C@@H](c1ccccc1)C1CCCCN1 (stereo not given in full) | 10 | -0.5 | 0.4% | -6 | -0.6 | -1
CCN(CC)c1ccc(/C=C2\C(=O)NC(=S)N(C)C2=O)o1 | 10 | 7.7 | 4.9% | -3 | 2.3 | -1
COCCOC(=O)c1c(N)n(Cc2ccco2)c2nc3ccccc3nc12 | -12 | -0.2 | 2.3% | -2 | -3.9 | -16

Further structures
SMILES | TRPML1 blocker | TRPML1 ag | PINK1 expr mod | D2 PAM | D2 agonist | Six1-Eya2 inh
COC(=O)C1=C(N)Oc2c(c(=O)oc3ccccc23)[C@]12C(=O)N(C)c1ccccc12 | -4 | 0.0 | -1.8% | -2 | 0.1 | 20
CCS(=O)(=O)N1CCCC(C(=O)N2CCC3(CC2)OCCO3)C1 (stereo not given) | -5 | -0.7 | -0.4% | 2 | -1.4 | 9
CSc1ccccc1C(=O)C1CCCN(Cc2cccc(C)n2)C1 (stereo not given) | 23 | 2.0 | 1.4% | -21 | -2.8 | 3
c1ccc(C(OCCN2CCN(c3ncccn3)CC2)c2ccccc2)cc1 | -14 | 0.7 | -0.1% | -20 | -1.9 | -19
COc1ccc(C(=O)N2Cc3cnnn3-c3ccccc3C2C#N)cc1 (stereo not given) | -2 | 0.6 | -1.4% | -8 | -1.8 | 5
CC/C=C/CC(=O)N[C@@H](c1ccccc1)[C@@H](O)C(=O)O[C@H]1C[C@@]2(O)[C@@H](OC(=O)c3ccccc3)C3[C@](C)(C(=O)[C@H](OC(C)=O)C(=C1C)C2(C)C)[C@@H](O)C[C@H]1OC[C@@]31OC(C)=O (stereo not given in full) | 4 | 0.8 | 4.3% | -3 | 2.9 | -2
NCC(O)c1ccc(O)cc1 (stereo not given) | 7 | 0.6 | 0.2% | -5 | 1.8 | 10
CN1CC=C(c2c[nH]c3ccccc23)CC1 | 1 | 0.2 | 2.4% | -13 | -2.2 | -4
CCCCNC(=O)c1c(N)n(Cc2ccc3c(c2)OCO3)c2nc3ccccc3nc12 | -2 | 1.8 | 3.0%[38.3 µM] | -12 | -3.9 | 0
Cc1cc(OCC(=O)N2CCN(CC(=O)N3CCOCC3)CC2)c(C(C)C)cc1Cl | 36 | 0.5 | 4.7% | -11 | 0.5 | -4
CN1CCN(c2oc(-c3ccc(COc4ccccc4)o3)nc2C#N)CC1 | 0 | -0.8 | -0.4% | x | x | x
COc1ccc(S(=O)(=O)NCc2ccc(C(=O)N3CCC4(CC3)OCCO4)cc2)cc1 | -7 | -0.1 | 3.7%[38.3 µM] | -5 | -2.4 | 5
O=C(Cc1ccccc1)Oc1ccc(N2C(=O)CCC2=O)cc1 | -4 | -0.3 | -0.6% | -26 | -2.3 | -29
O=C1NC(=O)N(c2ccc3c(c2)OCO3)C(=O)/C1=C\c1ccc(-c2ccccc2C(=O)O)o1 | -11 | 0.7 | 1.9% | -4 | -3.3 | -10
COc1ccc(OC)c2c1CCC1NCCOC21 (stereo not given) | -7 | -0.8 | 1.5% | -22 | -4.2 | -2
N#C/C(=C\c1ccc(O)cc1)C(=O)O | -24 | 0.4 | 0.4%&-0.9% | -9 | -5.1 | 1
CN1CCN(c2cc(N3CCCCCC3)c(F)cc2[N+](=O)[O-])CC1 | 9 | 0.4 | -2.7% | -31 | -4.2 | -22
